# Screening data deposited in PubChem BioAssay by several laboratories.
# Ecoli growth – inhibitors of Escherichia coli growth | OD600, 23 h; hits give low values | OD600 absorbance (no concentration beside the values) | 0.21% of 330,000 active | AID 1053175;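 active = OD600 absorbance below the run mean of sample wells minus 3.6 SD, in any replicate, cut at about 0.56 in these data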;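 also: stock transfer was 300 nL into about 60 µL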
# Beta2AR agonist – activates human beta-2 adrenergic receptor causing internalization; P07550; response, % (no concentration beside the values); Am2.2-beta2AR cells, FAP receptor internalization, flow cytometry; reference of the scale not given here; 0.43% of 340,000 active;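 active = response above a set limit, near 3 SD of response in nonfluorescent compounds, cut at about 42% in these data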;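 also: stock transfer was 100 nL into about 11 µL; a reference agonist was the positive control; negative values mostly stem from fluorescent compounds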
# LANA-H2A inh – blocks KSHV LANA binding to histone H2A/H2B; inhibition, % (no concentration beside the values); 0.6% of 320,000 active; cell-free LANA-H2A/H2B peptide, fluorescence polarization; in the data active = inhibition mostly above about 10%, no sharp cut-off; inactive = mostly below about 6.7%;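 also: stock transfer was 7.5 nL into about 10 µL; 0% = median of vehicle wells and 100% = median of positive control wells; one replicate is shown; the record names a cut of 25% in any replicate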
# Target sequence (Q9QR71 whole entry, looked up): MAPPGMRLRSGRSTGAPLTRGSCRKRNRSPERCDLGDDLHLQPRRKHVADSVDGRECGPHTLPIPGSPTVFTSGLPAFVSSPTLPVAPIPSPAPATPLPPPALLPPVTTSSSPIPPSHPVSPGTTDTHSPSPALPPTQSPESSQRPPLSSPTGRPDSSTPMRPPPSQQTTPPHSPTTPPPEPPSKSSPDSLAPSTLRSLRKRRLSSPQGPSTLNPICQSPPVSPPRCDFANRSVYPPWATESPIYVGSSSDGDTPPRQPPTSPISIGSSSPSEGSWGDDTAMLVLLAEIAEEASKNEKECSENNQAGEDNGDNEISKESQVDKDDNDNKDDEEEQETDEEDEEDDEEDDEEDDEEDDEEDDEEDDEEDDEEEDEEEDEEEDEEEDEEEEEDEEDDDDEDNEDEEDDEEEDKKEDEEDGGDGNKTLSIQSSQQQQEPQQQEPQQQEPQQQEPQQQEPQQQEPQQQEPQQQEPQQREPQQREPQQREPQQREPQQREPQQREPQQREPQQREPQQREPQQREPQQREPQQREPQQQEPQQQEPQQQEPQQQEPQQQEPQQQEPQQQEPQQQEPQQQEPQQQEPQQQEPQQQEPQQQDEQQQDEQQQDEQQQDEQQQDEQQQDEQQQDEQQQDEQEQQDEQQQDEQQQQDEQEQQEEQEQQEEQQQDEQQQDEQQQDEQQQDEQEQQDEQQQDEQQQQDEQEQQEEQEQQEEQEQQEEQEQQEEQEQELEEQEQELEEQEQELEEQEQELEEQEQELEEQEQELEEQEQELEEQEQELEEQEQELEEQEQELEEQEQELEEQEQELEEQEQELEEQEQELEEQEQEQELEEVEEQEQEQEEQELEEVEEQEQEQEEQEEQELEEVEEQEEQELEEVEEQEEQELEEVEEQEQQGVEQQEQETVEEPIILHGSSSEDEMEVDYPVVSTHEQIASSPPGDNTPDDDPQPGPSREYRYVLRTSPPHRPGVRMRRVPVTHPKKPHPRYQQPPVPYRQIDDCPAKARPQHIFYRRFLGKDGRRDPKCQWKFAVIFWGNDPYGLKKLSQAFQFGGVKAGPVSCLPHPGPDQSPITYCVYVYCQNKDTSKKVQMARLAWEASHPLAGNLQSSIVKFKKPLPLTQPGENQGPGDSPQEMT
# UCH37 inh – blocks the human deubiquitinase UCH37; Q9Y5K5; purified proteasome/UCH37, Ub-AMC cleavage fluorescence; inhibition, % (test concentration not listed); 0.33% of 330,000 active;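 active = mean of two replicates above 20%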;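 also: 0% = compound-free wells with enzyme and 100% = wells lacking proteasome; stock transfer was 100 nL into about 20 µL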
#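 Reagent: Ub-AMC substrate; assay system: Proteasome-associated human UCH37 deubiquitinase; controls: no-proteasome and no-compound wells; read-out: % inhibition of Ub-AMC cleavage fluorescence; timing: 30 min preincubation with enzyme, 25 min cleavage at room temperature; signal: AMC fluorescence from Ub-AMC cleavage, excitation 355 nm, emission 460 nm; buffer or medium: Tris-HCl pH 7.4 plus ovalbumin, ATP-MgCl2, DTT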
# HNF4A DNA FP – change in binding of human HNF4 alpha to DNA; HNF4a-FITC DNA binding, fluorescence polarization, 1 h; 0.3% of 360,000 active; AID 1224865; activity change, % at 10 µM; in the data active = activity change above about 30%, passing the limit was not always enough;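 also: controls were the assay level and a saturating level of protein; the project sought stronger binding though the title names inhibitors; some compounds called inactive have numbers as strong as hits; positive values seem to mean higher polarization but the record does not say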
# FGF22 binding – binders of recombinant human FGF22 by thermal shift; 1.5% of 340,000 active; AID 651658; calls only at 9.99 µM; SYPRO orange fluorescence; percent of sucrose octasulfate shift, DMSO zero;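 active = melting point raised past a set limit in the mean and every replicate; three in four hits are not shown here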
# ALR inh – inhibitors of human sulfhydryl oxidase ALR; inhibition, % (test concentration not listed); 3.8% of 290,000 active; purified ALR, DTT oxidation, H2O2 HRP-luminol luminescence; AID 485317;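 active = mean and each replicate at 75% or more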;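 also: stock transfer was 7.5 nL into about 7.5 µL; 0% = neutral wells and 100% = wells with inactivated enzyme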
# An asterisk follows results filed as active; i = inactive; x = not tested or not shown. Not all compounds are listed; count on the stated rates, not on these rows.
no.	Ecoli growth	Beta2AR agonist	LANA-H2A inh	UCH37 inh	HNF4A DNA FP	FGF22 binding	ALR inh	structure
1	0.67	1	1.9	6.6	-3.3	x	74	CCN(CC)C(=O)c1ccc2c(=O)n(CCOC)c(=S)[nH]c2c1
2	x	x	-5.7	-0.1	x	x	-1	CO[C@H]1O[C@@H]2O[C@@]3(C)CC[C@H]4[C@H](C)CC[C@@H]([C@H]1C)[C@@]24OO3
3	0.64	10	-1.1	0.4	0.7	i	-5	N#Cc1ccc(NC(=O)CN2CCN(c3ccccn3)CC2)cc1
4	0.71	-1	x	3.2	4.7	x	x	NS(=O)(=O)c1ccc(NC(=O)COC(=O)COc2ccc(Br)cc2)cc1
5	0.64	-2	-2.6	2.2	-5.2	i	-9	Cc1cc(-c2nc(-c3ccc(C(C)(C)C)cc3)no2)no1
6	0.71	-8	0.4	3.4	3.8	i	x	COc1ccc(C2(CNC(=O)c3cccs3)CCOCC2)cc1
7	0.69	-7	-3.1	2.6	-1.9	x	98*	N#Cc1c(-c2ccccc2)nc(SCC(=O)Nc2ccccc2)[nH]c1=O
8	0.69	3	4.7	0.4	-0.5	x	43	Cc1ccc(Nc2ccc(-n3ccnc3)nn2)cc1C

# Record cards, from the list above. Values in the order: Ecoli growth | Beta2AR agonist | LANA-H2A inh | UCH37 inh | HNF4A DNA FP | FGF22 binding | ALR inh
# `CCN(CC)C(=O)c1ccc2c(=O)n(CCOC)c(=S)[nH]c2c1` across the screens: 0.67 | 1 | 1.9 | 6.6 | -3.3 | x | 74
# `NS(=O)(=O)c1ccc(NC(=O)COC(=O)COc2ccc(Br)cc2)cc1` across the screens: 0.71 | -1 | x | 3.2 | 4.7 | x | x
# `Cc1cc(-c2nc(-c3ccc(C(C)(C)C)cc3)no2)no1` across the screens: 0.64 | -2 | -2.6 | 2.2 | -5.2 | i | -9
# `N#Cc1ccc(NC(=O)CN2CCN(c3ccccn3)CC2)cc1` across the screens: 0.64 | 10 | -1.1 | 0.4 | 0.7 | i | -5
# `COc1ccc(C2(CNC(=O)c3cccs3)CCOCC2)cc1` across the screens: 0.71 | -8 | 0.4 | 3.4 | 3.8 | i | x

# Next records follow.
no.	Ecoli growth	Beta2AR agonist	LANA-H2A inh	UCH37 inh	HNF4A DNA FP	FGF22 binding	ALR inh	structure
9	0.7	0	x	3.2	-1.7	x	x	O=C(O)C1CSC(c2ccccc2Cl)N1C(=O)c1ccc(Cl)cc1 (stereo unspecified)
10	0.74	10	-2.0	-15	5.0	i	10	O=C(O)c1cc(/C=C/c2ccc(N3CCOCC3)cc2)nc2ccccc12
11	x	4	-9.0	x	-0.8	i	17	COc1cc(/C=C2/SC(=S)N(CC(=O)O)C2=O)ccc1OCC(=O)Nc1ccc(C)c(C)c1
12	0.68	1	-4.1	0.9	-0.9	i	0	O=S(=O)(NCC(c1ccco1)N1CCOCC1)c1ccc(Cl)cc1 (stereo unspecified)
13	0.68	-5	4.0	-1.1	-4.3	i	-2	CN(Cc1cccs1)C(=O)CCNS(=O)(=O)c1ccc(Br)cc1
14	0.65	8	1.6	4.6	-0.6	i	28	COCCNC(=S)N(CCc1c(C)[nH]c2ccc(Cl)cc12)Cc1cccnc1
15	0.69	-7	2.5	3.7	-4.7	i	-12	O=C(c1ccccc1-c1nc(-c2ccc(Cl)cc2)no1)N1CCCC1
16	0.7	5	2.1	-1.3	-0.2	x	23	CC(C)(C)Cc1nnc(NS(=O)(=O)Cc2ccccc2)s1
17	0.72	-5	4.9	2.9	-2.1	i	-2	CCOc1ccc(NC(=S)N2CCN(CCN3C(=O)c4cccc5cccc(c45)C3=O)CC2)cc1
18	0.64	2	-2.0	-38	0.8	x	-1	COc1ccc(C(=O)Nc2cc3c(cc2N2CCOCC2)n(C)c(=O)n3C)cc1OC
19	0.77	4	-0.6	3.2	0.4	x	x	C1CCC(Nc2nnnn2C2CCCCC2)CC1
20	0.66	1	-3.7	-0.1	2.6	i	3	CN(C)S(=O)(=O)c1ccc(N2CCCC2)c(C(=O)Nc2cccc(F)c2)c1
21	0.64	1	x	1.2	-0.7	i	x	O=C(NCc1ccon1)C1CCC(=O)N(CCc2cccc(F)c2)C1 (stereo unspecified)
22	0.71	-4	-1.3	0.0	32*	i	3	NNC(=O)COc1ccc(F)cc1
23	0.68	-1	-0.1	4.3	-0.1	i	-6	O=C(c1ccc2nc(Cc3cccc(Cl)c3)oc2c1)N1CCC(CO)CC1
24	0.7	1	-10	3.8	3.5	i	-12	CC(C)(C)c1ccc(C(=O)N2CCN(Cc3ccccc3)CC2)cc1
25	0.72	2	-1.3	5.9	0.5	x	6	Cc1cc(C)n2[nH]c(=O)c(N=Nc3cccc(C(F)(F)F)c3)c2n1
26	0.71	0	-0.3	-1.4	0.6	x	x	Cc1ccc(S(=O)(=O)N(C)CC(=O)Nc2cccc(C)n2)cc1
27	0.63	0	0.3	1.0	2.1	x	6	CCn1c(SCC(=O)Nc2ccccc2OC)nc2ccccc2c1=O
28	0.7	3	4.8	1.1	3.1	i	10	O=C(C1CCN(c2ncnc3c2nc2n3CCCCC2)CC1)N1CCN(c2ccc(F)cc2)CC1
29	0.72	-7	-0.6	4.3	-0.3	i	0	O=C(COC(=O)CN1C(=O)c2ccccc2C1=O)NC1CCCC1
30	0.69	-10	-5.9	3.5	-5.8	i	-18	CCN(CC(=O)NCc1cccs1)S(=O)(=O)c1ccc([N+](=O)[O-])cc1
31	0.7	-3	x	1.5	0.5	i	x	CC(C)(C)S(=O)(=O)N1Cc2cc(CO)cc(CCO)c2[C@@H]1CCO
32	0.7	-2	0.2	-1.4	-1.9	x	-1	Cn1c(NCc2ccccc2)cc(=O)n(C)c1=O
33	0.68	2	0.6	1.0	1.1	x	-3	CN(Cc1cccs1)C(=O)CCc1ccc(S(=O)(=O)N2CCOCC2)cc1
34	0.69	10	x	4.1	-1.6	x	x	COCCn1c(-c2ccccc2)nc2ccccc21
35	0.71	1	-3.3	-0.8	-6.0	x	x	COC(=O)c1ccc(NC(=O)C23CC4CC(C2)CC(n2cncn2)(C4)C3)cc1
36	0.67	9	x	0.4	-1.4	i	x	COc1ccc2[nH]c3c(c2c1)CCN1C(=O)C(CC(=O)NCCN2CCOCC2)C[C@H](C(=O)N(C(C)C)C(C)C)[C@@]31C (stereo partly specified)
37	0.7	-7	-1.9	3.2	1.7	x	-5	Cc1cc(C(=O)O)c(CCCN)s1
38	0.69	-8	1.7	3.2	-1.8	x	-4	O=C(CCSCCc1ccccn1)Nc1ccc(Br)cc1F
39	0.66	1	-5.5	2.3	1.6	i	38	COC(=O)c1ccc(N2CCCCC2)c(NC(=O)c2ccco2)c1
40	0.66	-7	0.5	2.1	-0.5	i	-10	Cc1nc(-c2ccc(S(=O)(=O)N3CCN(Cc4ccccc4)CC3)s2)cs1

# Structural class: the compounds so far with two or more sulfur atoms
no.	Ecoli growth	Beta2AR agonist	LANA-H2A inh	UCH37 inh	HNF4A DNA FP	FGF22 binding	ALR inh	structure
11	x	4	-9.0	x	-0.8	i	17	COc1cc(/C=C2/SC(=S)N(CC(=O)O)C2=O)ccc1OCC(=O)Nc1ccc(C)c(C)c1
13	0.68	-5	4.0	-1.1	-4.3	i	-2	CN(Cc1cccs1)C(=O)CCNS(=O)(=O)c1ccc(Br)cc1
16	0.7	5	2.1	-1.3	-0.2	x	23	CC(C)(C)Cc1nnc(NS(=O)(=O)Cc2ccccc2)s1
30	0.69	-10	-5.9	3.5	-5.8	i	-18	CCN(CC(=O)NCc1cccs1)S(=O)(=O)c1ccc([N+](=O)[O-])cc1
33	0.68	2	0.6	1.0	1.1	x	-3	CN(Cc1cccs1)C(=O)CCc1ccc(S(=O)(=O)N2CCOCC2)cc1
40	0.66	-7	0.5	2.1	-0.5	i	-10	Cc1nc(-c2ccc(S(=O)(=O)N3CCN(Cc4ccccc4)CC3)s2)cs1

# (listing goes on)
no.	Ecoli growth	Beta2AR agonist	LANA-H2A inh	UCH37 inh	HNF4A DNA FP	FGF22 binding	ALR inh	structure
41	0.67	5	-2.6	-1.3	-3.9	x	-7	CCOc1ccc(NC(=O)CCN2CCN(S(=O)(=O)c3ccc(OC)cc3)CC2)cc1
42	0.76	-7	0.6	4.4	3.4	x	-16	O=c1cc(CSc2ccccn2)[nH]c(=O)[nH]1
43	0.72	-1	3.3	4.0	1.3	x	x	Cc1cc2c(cc1C)NC(=O)CC(C(F)(F)C(F)(F)C(F)(F)F)=N2
44	0.62	5	-11	12	-1.3	i	-6	Nc1nc(NCc2ccco2)nc(N2CCOCC2)c1[N+](=O)[O-]
45	0.7	-5	4.7	-5.3	1.5	i	0	Cn1c(=O)n(C)c2cc(N3CCCCC3)c(NC(=O)c3ccccc3)cc21
46	0.71	-6	x	2.2	-0.2	x	x	O=C(OCC(=O)N1CCOCC1)C(c1ccccc1)c1ccccc1
47	0.71	-9	3.2	-0.2	0.1	x	38	CC1CCN(C(=S)NC2CC3CCC2C3)CC1 (stereo unspecified)
48	0.7	-2	3.9	3.8	1.7	i	1	COc1ccc(NC(=O)CCn2c(=S)[nH]c3ccccc3c2=O)cc1OC
49	0.7	-3	x	1.8	2.2	i	x	O=S(=O)(c1ccccc1Br)N(Cc1ccccc1)CC(O)COCc1ccccc1 (stereo unspecified)
50	0.72	1	-0.3	0.7	-4.5	i	14	CCN(CC(=O)Nc1c(F)cccc1F)C(=O)c1nc2nccc(C)n2n1
51	0.62	0	-23	2.4	6.8	i	-3	Cn1c(N)c(C(=O)COC(=O)Cc2ccc(Br)cc2)c(=O)n(C)c1=O
52	x	-8	1.3	x	-10	i	-12	COc1ccccc1/C=N/NC(=O)c1sc(C)nc1C
53	0.67	-3	-9.8	4.4	0.2	x	-13	CC1=C2C(=O)OC(c3ccoc3)C2(C)CCC1 (stereo unspecified)
54	0.69	2	-2.5	2.6	2.4	x	2	Cc1ccc(OCCNC(=O)/C=C/c2ccc([N+](=O)[O-])cc2)cc1C
55	0.69	2	-2.6	0.8	0.2	x	-2	CCOC(=O)C1=C(CN2CCN(C(=O)c3ccco3)CC2)NC(=O)NC1c1ccccc1 (stereo unspecified)
56	0.64	10	-4.1	1.0	-0.7	i	-4	CCOC(=O)C1CCN(C(=O)CCc2ccc(S(=O)(=O)NC(C)C)cc2)CC1
57	0.71	-2	-3.3	0.5	0.7	i	-12	CCOC(=O)C1=C(O)C(=O)N(Cc2ccccc2)CC1
58	0.68	-8	-7.5	-1.9	-1.2	i	-7	Cc1ccc2c(c1)C(=O)CCCCC(=O)N2
59	0.65	2	9.6	0.4	0.0	i	-4	Cc1ccnc(SCC(=O)Nc2sccc2C#N)n1
60	0.64	1	6.7	-1.2	-4.5	i	0	O=C(NCC1CCCO1)C1CCN(C2CCN(C3CCCCCC3)CC2)CC1 (stereo unspecified)
61	0.7	-4	2.3	-9.1	0.8	i	-6	CSc1ccc(Cl)c(C(=O)OCC(=O)N2CCNC2=O)c1
62	0.67	0	1.9	-72	-0.6	x	40	Cc1ncc(CC(=O)n2cc(C(=O)c3cc(F)ccc3O)cn2)s1
63	0.68	-13	-6.8	0.9	0.5	x	3	CCN1CCN(c2ccc(NC(=O)Cc3ccccc3)cc2)CC1
64	0.73	7	2.3	-1.3	-6.9	x	15	O=C(c1cccc(C(=O)N2CCN(c3ccccc3)CC2)c1)N1CCN(c2ccccc2)CC1
